Assay outcomes deposited in PubChem by National Center for Advancing Translational Sciences (NCATS).
ClpP mod: qHTS Assay for Activators of ClpP; ATP-dependent Clp protease proteolytic subunit (Bacillus subtilis (strain 168)), P80244; purified B. subtilis ClpP, FRET peptide cleavage, 20 min; Potency, µM (highest dose often 57.5 µM), inactives show top-dose activity change, negative = active; 1.9% of 340,000 active; AID 651965, 2013; active = well fitted falling curve with a large enough effect; inconclusive = small, poorly fitted or top-dose-only effect; inactive = no such curve, though single readings can be large or run the other way; further: potency means the concentration at half of the fitted maximal effect; the source files actives as falling curves though it sought activators and does not explain the sign; nearly all actives have a fitted effect of over 65% in size; many hits overshoot -100%
Target sequence (P80244 whole entry, looked up): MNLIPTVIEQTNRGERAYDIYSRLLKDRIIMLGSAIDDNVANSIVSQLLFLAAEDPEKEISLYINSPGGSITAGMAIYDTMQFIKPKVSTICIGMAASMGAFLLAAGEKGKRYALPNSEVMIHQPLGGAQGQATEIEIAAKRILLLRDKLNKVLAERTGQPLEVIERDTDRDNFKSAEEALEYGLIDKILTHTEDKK
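ClpP 10 microg/mL final, pH 8 Tris/KCl buffer with BSA, glycerol, Tween-20; compound pinned in; FRET-FV substrate; RT 20 min; Ex320/Em430; ΔFRET vs ADEP 5.8 microM, DMSO, no enzyme.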
TRPV1 potentiator: enhances activation of the human vanilloid receptor TRPV1 | Q8NER1 | TRPV1-expressing cells, Fluo-8 calcium influx, capsaicin EC20 potentiation; host cell line not named in the record; control for the full effect not named in the record | potentiation, % at 8.33 µM | 0.02% of 320,000 active | AID 540277; active means potentiation above 80%; inconclusive means 30% to 80%; inactive means below 30%; further: 0% is about no effect
Target sequence (Q8NER1 whole entry, looked up): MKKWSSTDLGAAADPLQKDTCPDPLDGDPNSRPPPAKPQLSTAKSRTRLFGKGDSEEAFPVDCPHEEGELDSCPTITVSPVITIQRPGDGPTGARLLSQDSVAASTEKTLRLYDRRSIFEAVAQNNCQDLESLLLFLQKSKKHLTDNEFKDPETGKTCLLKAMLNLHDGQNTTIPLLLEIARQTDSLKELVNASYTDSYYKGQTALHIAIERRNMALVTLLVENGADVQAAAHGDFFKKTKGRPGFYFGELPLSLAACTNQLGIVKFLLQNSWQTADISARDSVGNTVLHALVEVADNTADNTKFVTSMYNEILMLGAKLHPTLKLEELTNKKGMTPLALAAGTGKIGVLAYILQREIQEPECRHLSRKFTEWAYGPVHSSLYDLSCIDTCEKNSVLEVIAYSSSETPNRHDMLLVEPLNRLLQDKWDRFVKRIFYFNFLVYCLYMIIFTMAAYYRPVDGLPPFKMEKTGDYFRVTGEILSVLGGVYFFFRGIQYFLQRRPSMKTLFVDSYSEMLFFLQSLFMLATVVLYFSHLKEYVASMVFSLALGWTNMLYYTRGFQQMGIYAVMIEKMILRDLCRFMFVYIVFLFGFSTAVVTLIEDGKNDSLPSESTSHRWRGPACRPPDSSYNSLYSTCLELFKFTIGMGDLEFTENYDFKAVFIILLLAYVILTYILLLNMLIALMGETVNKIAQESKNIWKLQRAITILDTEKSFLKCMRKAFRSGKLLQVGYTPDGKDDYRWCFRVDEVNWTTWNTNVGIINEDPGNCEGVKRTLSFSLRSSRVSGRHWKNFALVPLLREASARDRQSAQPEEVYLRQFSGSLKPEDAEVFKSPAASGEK
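Fluo-8 calcium influx in TRPV1-expressing cells, kinetic read (ex 480/em 520 nm). Compound added and read 3 min for agonist activity, followed by capsaicin at EC20 final and 2 min further read for enhancement.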
Sfp inh: inhibitors of Bacillus subtilis Sfp phosphopantetheinyl transferase | Q9F4F7 | Biochemical Sfp PPTase activity, qHTS | Potency, µM, for the others: max response, negative = inhibition, hits mostly inhibitors | 3.5% of 310,000 active | AID 1490; active means well fitted inhibition curve with a large enough effect; inconclusive means small, poorly fitted or top-dose-only effect, or another doubt; inactive means no such curve, though single readings can be large or run the other way;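 further: the enzyme is Sfp with the accession as filed and its product quenches rhodamine fluorescence; potency means the concentration at half of the fitted maximal effect; 0% = enzyme reaction without inhibitor and -100% = no enzyme wells; top concentration of the series not given in the record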
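Step 1, compound plus 15 nM Sfp-PPTase, 15 min, room temperature. Step 2, add rhodamine-CoA (5 uM) and BHQ-2-YbbR (12.5 uM). Step 3, read 525/598 nm fluorescence at 0 and 30 min.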
CtBP-E1A blk: CtBP/E1A binding inhibition. AID 651724. AlphaScreen GST-E1A/His-CtBP binding, 1536-well; hits give low values; control for the full effect not named in the record. activity change, % (no concentration beside the values). 0.49% of 340,000 active; in the data active means activity change below about -65%; inconclusive means about -30% to -65%; inactive means above about -30%; further: on the % scale 0 is the no-effect control and ±100 the full control effect; compound concentration not given in the record
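GST-E1A and His-tagged CtBP (125 nM each as 5X stock) were preincubated with pin-transferred compound for 2 h at 37 °C in the dark, then glutathione donor and nickel acceptor beads were added for 1 h before AlphaScreen reading.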
Menin MLL FP FL: menin-MLL binding inhibition, fluorescein peptide. FP activity change, % at 61.4 µM. AID 1766. Fluorescence polarization, fluorescein-MLL peptide displacement from menin. 290,000 tested, under 10 active; inconclusive = falling polarisation curve, or a change in total fluorescence; inactive = total fluorescence flat and polarisation flat or rising; no compound was filed as active; the % refers to the polarisation; negative = inhibition;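 further: % of control where 0% means no effect; inhibitors lower the polarisation; unlabelled MLL peptide was the positive control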
gsp antagonist: antagonists of gsp mutant (McCune-Albright syndrome); AID 624288; gsp-mutant cells, cAMP HTRF, 30 min; control for the full effect not named in the record; Potency, µM (titrated, usually from 76.9 µM), inactives show at the highest dose activity change, negative = inhibition, usual class: inhibitors; 0.4% of 340,000 active; active = falling curve of any shape with a large fitted effect; inconclusive = falling curve, mostly with a smaller effect; inactive = flat or rising curve; cell line not stated here;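 further: intracellular cAMP measured with PDE inhibitor Ro 20-1724 present during compound exposure; potency means the concentration at half of the fitted maximal effect; on the % scale 0 is the no-effect control and ±100 the full control effect; nearly all actives have a fitted effect of over 65% in size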
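HTRF cAMP read-out (cAMP-d2 plus anti-cAMP antibody-K in lysis buffer, 30 min RT). Before lysis, cells are exposed to compounds with […] for 30 min at 37C in DPBS containing Ca/Mg, BSA and Tween 20.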
gsp agonist: activates gsp, the McCune-Albright syndrome mutation; gsp mutant cells, cAMP HTRF, 30 min; control for the full effect not named in the record; Potency, µM (highest dose often 76.9 µM), for inactives: at the top dose activation (cAMP increase), actives largely listed as activators; 0.13% of 340,000 active; AID 624287; active = well fitted activation curve with a large enough effect; inconclusive = small, poorly fitted or top-dose-only effect, or another doubt; inactive = no such curve, though single readings can be large or run the other way; cell line not stated here;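 further: phosphodiesterase inhibitor Ro 20-1724 added with compounds to block cAMP breakdown; potency means the concentration at half of the fitted maximal effect; nearly all actives have a fitted effect of over 60% in size; about a fifth of the inactives were tested at one dose only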
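Cells stably selected in G418 were plated at 2000/well, grown 16-24 hr, then given compounds in DMSO with the PDE inhibitor […] (300 uM solution added) for 30 min at 37C; cAMP was read by HTRF.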
* marks the source's active call; other numbers are inactive results; ? = inconclusive; . = not tested or not shown; & = joins results of further samples; [ ] = dose if it differs, or a comment. The order is random; 5.3% or so of the library scored in one or more.

SMILES	ClpP mod	TRPV1 potentiator	Sfp inh	CtBP-E1A blk	Menin MLL FP FL	gsp antagonist	gsp agonist
CC1(C)CC2CC(C)(CN2C(=O)CN2C(=O)c3ccccc3C2=O)C1 (stereo not given)	-0.4%	4	13%	9	-3.1	14%	10%
COc1cc(C(=O)Nc2ccc(C(=O)c3ccncc3)cc2)cc(OC)c1OC	-0.4%	.	.	1	.	.	-99%[inhibitor]
CCOC(=O)CC(NC(=O)Cn1nnc(-c2ccccc2C)n1)c1ccc(OC)cc1 (stereo not given)	1.9%	1	-10%	.	-6.3	.	.
Cc1nc2c(C(=O)NCc3ccc4c(c3)OCO4)cnn2c(C)c1Cc1ccc(F)cc1Cl	35µM*	26	-26%	-1	2.3	0%	-11%
CN(CC(=O)Nc1ccc(Cl)cc1)C(=O)c1ccc(S(=O)(=O)Nc2ccccc2)cc1	.	28	.	-12	.	-11%	-33%[15.4 µM]
COc1ccc(N(CCC#N)C(=O)/C(C#N)=C/c2cccs2)cc1	.	-5	13%	4	-0.7	-3%	4%
Cc1nc(SCC(=O)NCC2CCCO2)c2c(C)c(C)sc2n1 (stereo not given)	-6.6%	.	.	-2	.	16%	?
COc1ccc2cc(C)c3nnc(SCC(=O)Nc4nc(-c5ccc(F)cc5)cs4)n3c2c1	-2.2%	5	-6%	-3	6.0	3%	-4%
O=[N+]([O-])c1cc(C(F)(F)F)cc([N+](=O)[O-])c1NCCNC(=S)Nc1ccc(Cl)c(Cl)c1	.	1	-5%	-25	-1.0	?	-10%
CCCC(C)NC(=O)COC(=O)c1ccccc1SCC(=O)NC(C)CCC (stereo not given)	.	-6	15%	2	-5.2	10%	-13%[15.4 µM]
O=C(N/N=C/c1cccc(OC(=O)c2ccc3c(c2)OCO3)c1)c1cncc(Br)c1	-2.0%	-3	?	3	5.8	-11%	-1%
CCN1/C(=C/C=C2/SC(=Nc3cccc4ncccc34)N(C)C2=O)Sc2ccccc21	.	.	.	9	.	1%	-2%
Cc1ccccc1N=C1NC(=O)/C(=C/c2cccn2-c2cccc(C(=O)O)c2)S1	.	2	0%	5	16	?	?
COc1ccccc1C1C(C(=O)NCc2ccccc2)=C(C)Nc2ncnn21 (stereo not given)	?	-30	8%	1	-1.9	8%	?
CCn1c2ccccc2c2cc(/C=N/NC(=O)c3cccc(C)c3)ccc21	-18%	-5	12%	-2	0.5	-9%	-22%
O=C(O)Cc1ccc(S(=O)(=O)N2CCCC2)s1	-8.3%	.	.	-7	.	-9%	7%
c1ccc(-c2ccc(-c3nccc4ccccc34)[nH]2)cc1	.	4	50µM*	.	7.3	.	.
CCn1c(-c2c[nH]c3ccccc23)n[nH]c1=S	-1.6%	?	-7%	15	-0.2	9%	-2%
CCN1CCN(C(=O)c2cccc(OC3CCN(S(C)(=O)=O)CC3)c2)[C@@H](C)C1=O	0.7%	0	15%	-3	.	13%	3%
Cc1ccc(C)c(C2=NNC(=NCc3ccccc3)SC2)c1	.	-5	-108%	1	13	-6%	3%[15.4 µM]
Cc1ccc(C2=NN(CCC(=O)NC3CCCC3)C(=O)CC2)cc1	-2.3%	-7	21%	-23	5.1	17%	23%
COc1ccc(NC(=O)N2CCCC(c3ccccc3)C2)cc1 (stereo not given)	-4.1%	-16	5%	6	2.4	-3%	10%
Cc1c(C#N)c2ccccc2n1CCOc1ccccc1F	0.3%	6	?	11	3.6	-11%	-48%[inhibitor]
CCOc1cc2c(cc1/C=C/c1noc(C)c1[N+](=O)[O-])OC(C)C2 (stereo not given)	-0.8%	7	12%	6	?	5%	-23%
COc1cccc2c1O/C(=N\O)C(C(=O)Nc1ccc(C)cc1)C2 (stereo not given)	-0.6%	-3	5%	2	3.6	11%	-11%
CC1CCCN(C(=O)c2ccc3ncsc3c2)C1 (stereo not given)	.	11	.	-19	.	4%	-1%[15.4 µM]
CC(=C/c1ccccc1)/C=N/NC(=O)c1cccs1	.	-13	-2%	1	-2.5	-1%	2%[15.4 µM]
O=C(O)C1C2C=CC(O2)C1C(=O)NCc1ccc2c(c1)OCO2 (stereo not given)	-1.1%	-1	2%	2	2.1	1%	-4%
CCOC(=O)N1CCN(C(=O)CCCn2nnnc2CN2CCC(C)CC2)CC1	0.8%	-2	4%	-15	?	11%	-8%
CCCc1ccc(OCC(=O)NNC(=O)c2cccnc2)cc1	.	-2	14%	9	0.2	-4%	0%[15.4 µM]
COc1cc(S(=O)(=O)N2CCOCC2)cc(C(=O)c2nccn2C)c1OC	-2.4%	8	6%	8	0.5	1%	-5%
CC1CCCCC1NC(=O)CSc1nnc(CNC(=O)c2ccccc2)n1C (stereo not given)	-1.9%	-1	7%	-4	-2.3	11%	-25%
Cc1ccc(-c2cc(C(=O)N/N=C/c3cccnc3)n[nH]2)o1	-2.2%	-6	1%	-13	-0.3	-1%	-71%[inhibitor]
CNS(=O)(=O)c1ccc(C)c(S(=O)(=O)NC)c1	2.8%	3	0%	8	1.8	10%	-10%
Cc1n[nH]c(C)c1S(=O)(=O)N(C)Cc1ccco1	0.8%	-8	.	.	.	2%	-33%[inhibitor]
Cc1ccc(N2CCN(S(=O)(=O)N(C)C)CC2)cc1Cl	-7.3%	-2	14%	-1	3.2	-4%	?
C=CCN(CC=C)CCOc1ccc(OC(C)C)cc1	.	-6	-28%	1	-0.6	5%	24%
CCOc1cccc(SCc2noc(C(=O)NCC3CCCO3)c2C(=O)O)c1 (stereo not given)	2.4%	18	-2%	5	2.3	2%	.
Cc1c(C(=O)N2CCC(C)CC2)oc2ccc(S(=O)(=O)N3CCC4(CC3)OCCO4)cc12	-0.9%	-11	-8%	1	-0.3	-18%	25%
CCOC(=O)N1CCN(c2cc(=O)n(-c3ccc(OCC)cc3)c(=O)[nH]2)CC1	-0.4%	-13	2%	0	0.4	12%	30%
O=C(NCCc1ccccc1)c1cc2ccccc2oc1=O	-19%	-13	9%	0	1.8	0%	19%
Cc1ccc(CNC(=O)CCCc2c[nH]c3ccccc23)cc1	.	-7	3%	0	.	-1%	5%
NC(=O)Nc1ccc(C(=O)OCC(=O)Nc2sccc2C(N)=O)cc1	-7.6%	13	.	-3	.	3%	13%
CS(=O)(=O)c1ccc2nc(NC(=O)CCN3C(=O)c4ccccc4C3=O)sc2c1	.	7	-4%	.	-1.2	2%	9%[15.4 µM]
COc1ccccc1NCC(O)Cn1c2ccccc2c2ccccc21 (stereo not given)	-20%	-5	19%	-30	8.6	-11%	-7%
COC(=O)c1cccc(NC(=O)Cc2coc3cc(OC)ccc23)c1	-1.9%	-5	12%	-4	-1.3	-1%	13%
CCOC(=O)Cn1cnc2c(nnn2-c2ccc(F)cc2)c1=O	-0.4%	5	11%	2	-9.0	1%	-55%[inhibitor]
CCOC(=O)N1CCN(Cc2nc3c(c(=O)n(C)c(=O)n3C)n2Cc2ccccc2)CC1	-2.1%	-9	-7%	4	2.0	-5%	28%
O=[N+]([O-])c1ccccc1S(=O)(=O)N1CCN(CC2CC=CCC2)CC1 (stereo not given)	.	-6	?	.	1.6	-12%	25%[15.4 µM]
CC(C)C(CCN1C(=O)c2ccccc2C1=O)c1ccco1 (stereo not given)	1.3%	-12	-15%	4	2.1	-10%	-29%
COc1ccc(/C=C/c2onc(C)c2S(=O)(=O)N2CCC(C(=O)N3CCC(C)CC3)CC2)cc1	-5.9%&-6.8%	0	14%	19	-1.6	-31%	-2%
CNc1nc(CC(C)=O)ns1	-2.7%	-4	3%	2	2.3	5%	18%
O=C(CCNC(=O)c1ccccc1Cl)NN=Cc1ccccc1[N+](=O)[O-]	-4.0%	.	.	-4	.	-4%	10%[15.4 µM]
Cc1ccc(C)c(Cn2c(C)nc3c(sc(=S)n3-c3ccccc3)c2=O)c1	.	?	2%	-1	-3.2	-11%	-3%[15.4 µM]
CC[C@@]1(C(=O)OC)N[C@H](CN(C)C(=O)c2ccc(F)cc2)[C@@H]2C(=O)N(C)C(=O)[C@@H]21	1.2%	.	.	7	.	10%	.
O=C(N=C1SC2CS(=O)(=O)CC2N1c1ccc(F)cc1)C1CC1 (stereo not given)	-0.9%	4	15%	2	-8.0	10%	?
O=S(=O)(CCN1CCN(c2ccccc2O)CC1)c1cc(Cl)ccc1Cl	-0.4%	0	.	-1	.	1%	-8%
CCOc1ccccc1/C=N/n1nnnc1N	.	12	3%	-19	-7.5	-1%	-1%
COc1ccccc1N=C(C)C1=C(O)COC1=O	0.0%	7	16%	4	1.2	1%	-7%
CCn1c(SCC(=O)N/N=C(/C)c2ccncc2)nc2ccccc21	.	12	-6%	-24	-0.2	-1%	35%
Additional results follow:
SMILES	ClpP mod	TRPV1 potentiator	Sfp inh	CtBP-E1A blk	Menin MLL FP FL	gsp antagonist	gsp agonist
CC1=CC(=O)[C@@H](O)[C@@H](c2ccccc2Br)N1C	0.6%	.	.	5	.	10%	.
O=C(CNc1cccc([N+](=O)[O-])c1)N/N=C/c1ccc(F)cc1	1.6%	14	10%	-3	1.5	0%	0%
COc1ccc2c(c1OC)C(=O)OC2CC(=O)c1ccc(O)cc1 (stereo not given)	-3.5%	27	14%	0	-1.7	?	-37%[inhibitor]
CC1(C)Cc2c(cnn2-c2ccccc2)C(NC(=O)C2(C(N)=O)CC2)C1 (stereo not given)	-0.4%	-5	9%	3	0.9	-1%	-2%[15.4 µM]
CCOC(=O)C(C)(C)N(Cc1cccc(C)c1)S(=O)(=O)c1cccc([N+](=O)[O-])c1	0.6%	-9	-10%	-2	4.0	-5%	7%
CCCCCCn1c(CN2CCCCC2)nc2c1c(=O)n(C)c(=O)n2C	-0.4%	.	.	9	.	2%	-1%
COc1ccc(S(N)(=O)=O)cc1C(=O)NNC(=O)c1cccc(S(=O)(=O)N2CCOCC2)c1	-3.2%	.	.	0	.	6%	0%
CC(=O)c1ccc(OCC(C)C)c(CN2CCCCC2)c1	1.4%	4	25%	-4	2.8	-4%	?
